# PV pol inh: poliovirus RdRp elongation inhibitors, primary screen, biochemical, fluorescence polarization, total intensity | poliovirus polymerase elongation; active compounds read low | Genome polyprotein (Poliovirus type 1 (strain Mahoney)), P03300 | hit rate 0.66% among 150,000 | AID 588519, 2011 | % elongation, % (compound at 16.7 µg/mL); in the data active = % elongation below about 90%; note: some results filed as inactive read as strong as hits
# MenB inh: M. tuberculosis MenB inhibitors, primary screen, biochemical, absorbance; MenB enzyme assay, absorbance read-out; some hits fall short of the stated cut; inhibition, %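 (about 12 µg/mL by stock and volumes)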; hit rate 0.43% among 100,000; AID 540299, 2011;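 active = mean of two replicates above 30%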;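 note: 0% = no compound and 100% = wells with inactive enzyme; the first replicate is given; strong numbers were not always called active; inactives centre near -10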
# Target sequence (P9WNP5 whole entry, looked up): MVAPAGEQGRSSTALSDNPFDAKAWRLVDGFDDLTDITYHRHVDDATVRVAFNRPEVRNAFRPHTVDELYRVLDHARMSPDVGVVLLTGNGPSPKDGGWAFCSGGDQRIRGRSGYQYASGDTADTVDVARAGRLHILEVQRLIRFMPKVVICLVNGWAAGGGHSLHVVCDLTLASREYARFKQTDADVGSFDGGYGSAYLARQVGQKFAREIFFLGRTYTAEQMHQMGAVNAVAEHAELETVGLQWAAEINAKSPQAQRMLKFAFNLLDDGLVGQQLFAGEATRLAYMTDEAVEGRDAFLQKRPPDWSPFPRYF
# MbtI inh: MbtI salicylate synthase inhibitors, primary screen, biochemical, fluorescence intensity; P9WFX0; purified MbtI enzyme, fluorescence intensity read-out; inhibition, %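 (about 17 µg/mL by stock and volumes)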; hit rate 0.89% among 100,000;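 active = above 50% in both replicates, above 80% if mildly self-fluorescent; inactive = the rest, strongly fluorescent compounds included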;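 note: 0% = mean of negative and 100% = mean of positive controls; one replicate is shown; some compounds called inactive have numbers as strong as hits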
# Target sequence (P9WFX0 whole entry, looked up): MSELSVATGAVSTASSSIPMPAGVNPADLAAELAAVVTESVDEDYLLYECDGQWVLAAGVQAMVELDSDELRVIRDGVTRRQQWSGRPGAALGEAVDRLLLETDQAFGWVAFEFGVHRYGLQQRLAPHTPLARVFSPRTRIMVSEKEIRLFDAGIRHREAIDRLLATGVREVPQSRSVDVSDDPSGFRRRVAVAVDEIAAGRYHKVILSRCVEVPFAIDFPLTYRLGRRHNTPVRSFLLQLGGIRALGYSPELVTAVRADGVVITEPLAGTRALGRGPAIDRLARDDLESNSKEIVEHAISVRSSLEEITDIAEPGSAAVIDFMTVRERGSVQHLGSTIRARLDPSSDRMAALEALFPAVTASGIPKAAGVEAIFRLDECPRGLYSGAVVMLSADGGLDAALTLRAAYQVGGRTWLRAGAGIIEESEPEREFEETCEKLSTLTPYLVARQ
# PV pol inh intensity: recorded beside PV pol inh, whose call it bears; % elongation; measured here: total intensity read-out; formula for this scale not given here;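 total fluorescence in place of polarization; lower means less elongation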
# * hit, by the source's call; . = no result given. Outcome played no part in choosing rows. Share with any hit: about 2%.
# A first look (3 entries):
SMILES	PV pol inh	PV pol inh intensity	MenB inh	MbtI inh
CC1Cn2c(C(=O)NCc3ccccc3)cc3c(Cl)ccc(c32)O1 (stereo unspecified)	104	102	-19	118
CCc1cccc(NC(=O)c2sc(-n3cccc3)nc2C)c1	102	104	6	11
CC(=O)Nc1ccc(SC(F)(F)C(F)(F)C(F)(F)F)cc1	99	103	1	-24

# The whole of this part, repeating the preview:
SMILES	PV pol inh	PV pol inh intensity	MenB inh	MbtI inh
CC1Cn2c(C(=O)NCc3ccccc3)cc3c(Cl)ccc(c32)O1 (stereo unspecified)	104	102	-19	118
CCc1cccc(NC(=O)c2sc(-n3cccc3)nc2C)c1	102	104	6	11
CC(=O)Nc1ccc(SC(F)(F)C(F)(F)C(F)(F)F)cc1	99	103	1	-24
CN(Cc1ccccc1)C(=O)CCS(=O)(=O)c1cc2c(cc1Cl)NC(=O)CO2	105	99	-15	-13
CCCC(=O)Nc1cccc(N)c1	104	111	-5	.
CCN1C(=O)/C(=C/c2c[nH]c3ccccc23)c2ccccc21	111	103	-85	8
CCOC(=O)N1CCC(NC(=O)C2CCCN(c3ncnc4c3sc3cccc(F)c34)C2)CC1 (stereo unspecified)	102	103	-11	-17
O=C(Cc1ncc[nH]1)c1ccccc1	103	98	-7	3
CCCCN(C)S(=O)(=O)c1ccc2oc(C(=O)O)c(C)c2c1	102	104	8	1
CC(CC(=O)NCCc1ccccc1)n1cccn1 (stereo unspecified)	101	102	-34	-20
Cc1ccc(Nc2cc(C(=O)NCCCN3CCOCC3)c3ccccc3n2)c(C)c1	100	102	-8	12
COc1ccccc1-c1ccc(SCC#N)nn1	107	98	-25	11
O=C(Nc1ccccc1N1CCOCC1)c1cc(=O)[nH]c2ccccc12	106	119	-13	-2
Cc1cc(NC(=O)c2ccc3nonc3c2)on1	101	104	-18	3
Cc1cccc(C(=O)Nc2sc(C)c(C)c2C#N)c1	97	103	-13	.
COc1ccc(C(=O)N2CCN(S(=O)(=O)c3ccccc3)CC2)cc1OC	106	98	6	.
CCOc1ccccc1OCC(=O)Nc1ccc(S(=O)(=O)Nc2nc(C)cc(C)n2)cc1	101	102	5	-4
Cc1ccccc1OCCCn1cc(C(=O)C2CC2)c2ccccc21	104	104	-38	-1
Cc1cc(C)n(-c2cccc(Cl)c2C#N)n1	101	102	17	-12
CCC(Sc1nnc2c3ccccc3n(C(C)C)c2n1)C(=O)Nc1nc2ccccc2s1 (stereo unspecified)	100	102	-2	-17

# (list continues)
SMILES	PV pol inh	PV pol inh intensity	MenB inh	MbtI inh
COCC(=O)N1CCC(c2nc3ccccc3[nH]2)CC1	103	105	-6	0
N#CCS(=O)(=O)c1cc(Cl)ccc1Cl	101	104	.	-6
N#Cc1c2c(c(N3CCCCC3)n3c1nc1ccccc13)CCCC2	100	103	5	9
N#Cc1c2c(c(N3CCCC3)[nH]c1=S)CCCC2	93	112	-2	32
CC(C)(C)C(=O)CC(Nc1ccccc1)c1ccc(Cl)cc1 (stereo unspecified)	106	103	-6	-4
CCN(C(=O)CSc1nc2cc(C(=O)OC)ccc2c(=O)n1CCN1CCOCC1)c1cccc(C)c1	102	102	-9	-8
CCNC(=S)N1CCC(NC(=O)c2ccccc2)CC1	102	99	-54	3
O=C(Nc1ccccc1)C1CCCN1C1CCCCC1 (stereo unspecified)	103	104	-11	-6
COC(=O)c1cc2c(ccc3ccccc32)oc1=O	102	101	-23	107
O=c1c2c3c(sc2[nH]c(=S)n1Cc1ccco1)CCCC3	101	107	-26	36
Cn1ccnc1SCC(=O)NCc1ccccc1	101	103	.	-9
COc1ccc(CCNC(=O)c2cc(-c3ccccn3)nc3ccccc23)cc1	102	107	.	0
Cc1ccc2[nH]c(-c3ccccc3)c(CN(C)C)c(=O)c2c1	103	106	-5	8
O=C(Nc1ccc(F)cc1)c1cnccc1C(F)(F)F	106	110	-6	-10
CC(C)CCN1CC(C)C(O)(c2ccccc2)CC1C (stereo unspecified)	101	103	10	2
CC(=O)Nc1ccc(-n2cc(-c3ccccc3)[nH]c2=S)cc1	96	104	-6	26
CS(=O)(=NS(=O)(=O)c1ccc(OC(F)(F)F)cc1)c1ccc(Cl)cc1 (stereo unspecified)	102	99	-14	-4
O=C(CSc1nc2ncccc2[nH]1)N1CCCC1	103	100	-17	2
CCOC(=O)c1cnc2cc(-c3ccc(C)cc3)nn2c1C	101	103	-20	-68
CC1CC(=O)c2cnc(Nc3ccccc3)nc2C1 (stereo unspecified)	103	106	-5	38

# Later entries:
SMILES	PV pol inh	PV pol inh intensity	MenB inh	MbtI inh
Nc1ccc(-c2ncc(-c3ccccc3)o2)cc1	103	104	.	90
Cc1onc(-c2ccccc2)c1CNC(=O)Nc1ccccc1	103	108	-14	-16
COC(=O)c1ccc(CSc2ncnc3c2cnn3-c2ccc(C)cc2C)o1	104	102	-12	-2
CC(CO)(CO)NC(=O)NC1CCCCC1	100	102	7	-9
c1ccc(CN2CCN(Cc3ccccc3)C2c2ccc[nH]2)cc1	99	99	19	-5
COc1ccc(S(=O)(=O)N2CCC(NC(=O)c3ccccc3)CC2)cc1	102	101	33*	0
Cc1ccc(S(=O)(=O)N/N=C/c2c(O)[nH]c(=O)[nH]c2=O)cc1	100	97	-23	23
CCOC(=O)C1CCCN(S(=O)(=O)c2ccc(Cl)cc2)C1 (stereo unspecified)	100	101	-28	1
Cc1oc(-n2c(C)ccc2C)c(C#N)c1C	110	102	-20	.
Cc1nc(N)[nH]c(=O)c1Oc1cccc(C(F)(F)F)c1	102	95	-14	9
COC(=O)C1(c2ccc(OC)c(OC)c2)CCCC1	99	102	-23	-8
COc1cc(C)ccc1OCCn1cccc1/C=C1\C(=N)N2N=C(N3CCCC3)SC2=NC1=O	101	102	-15	-3
Cc1ccc(Cc2cc(C)n[nH]c2=O)cc1	103	116	-5	-6
CCN1CCC2(CC1)OC(=O)C(C)=C2C(=O)Nc1ccc(F)cc1	101	105	12	-19
Cc1ccccc1Nc1nc(N)nc(CN2CCC(C)CC2)n1	104	103	4	-8
Cc1c(C)n(CCN(C)C)c2ccc(C(=O)OCCN(C)C)cc12	100	89	-13	0
CC1C(=O)C(C)C(c2ccc(N(C)C)cc2)NC1c1ccc(N(C)C)cc1 (stereo unspecified)	102	106	-20	5
Cn1ccc(/C=C2/CCC/C(=C\c3ccn(C)n3)C2=O)n1	103	99	-64	8
CCc1ccc(N2C(=O)c3ccncc3C2=O)cc1	99	100	-9	-12
CCN(CC)c1ccc2cc(-c3nc4ccccc4o3)c(=O)oc2c1	81	174	-192	11

# The list goes on.
SMILES	PV pol inh	PV pol inh intensity	MenB inh	MbtI inh
Cc1noc(/C=C/N2CCOCC2)c1S(=O)(=O)N(C)CC(=O)NC1CCCCC1	99	98	-31	-5
Cc1cc(SCc2ccccc2)nc2ccccc12	.	.	-2	1
CCC(C)NC(=O)c1cc(-c2ccccn2)nc2ccccc12 (stereo unspecified)	101	105	5	15
C/C(=C/C(=O)C(F)(F)F)N1CCN(c2ccccn2)CC1	103	109	8	12
CCc1ccc(NC(=S)N(CCCN2CCCCC2)Cc2ccco2)cc1	103	102	5	1
FC(F)(F)Oc1ccc(-c2nnc(-c3cccnc3)o2)cc1	104	106	-10	-11
CC(C)(C)NC(=O)NCc1ccco1	102	94	-17	-5
CC1Cc2ccccc2N1C(=O)Cn1nc(-c2nccc3ccccc23)oc1=O (stereo unspecified)	104	98	-51	43
Cc1cc2ncn(C(=O)CCCOc3ccccc3)c2cc1C	101	106	-13	-6
N#CC1=C(N)N(c2ccccc2)C(=O)C1	105	107	-21	4
CCCNC(=O)CCc1nc(-c2ccccc2Cl)no1	100	102	-24	18
O=C(O)c1cc2cccc(S(=O)(=O)N3CCCCCC3)c2cc1O	102	100	3	.
O=C(NCc1ccccc1Cl)C1CCN(C(=O)c2ccco2)CC1	103	104	-24	.
O=C(NCCO)c1cc2cc(Cl)ccc2o1	.	.	-12	17
N#C/C(=C\c1cn(CC(=O)N2CCCC2)c2ccccc12)C(=O)NC1CC1	99	100	-460	-14
CN(C)CCO/N=C(\c1ccccc1)c1ccncc1	100	100	-3	-14
Cc1ccc2c(c1)NC(CN=C(N)N)CC2 (stereo unspecified)	103	97	-5	-5
CC1CCCC(C)N1/N=C/c1ccc(C(=O)O)cc1 (stereo unspecified)	101	96	15	12
CCS(=O)(=O)Nc1ccc(Cc2ccncc2)cc1	103	101	-22	-6
Cn1c(CC(=O)NN)nc2ccccc21	102	110	-44	11

# (list continues)
SMILES	PV pol inh	PV pol inh intensity	MenB inh	MbtI inh
COc1cccc(NC(=O)N2CCC(CN3CCCCCC3)CC2)c1	103	101	-14	13
CCCN1C2CCCC1CC(NC(=O)Nc1ccccc1C(F)(F)F)C2 (stereo unspecified)	104	103	-233	-7
CCOC(=O)c1cc[nH]c1C	102	107	7	-5
N#Cc1c(N(S(=O)(=O)c2ccccc2)S(=O)(=O)c2ccccc2)sc2c1CCCC2	99	100	-41	34
COc1ccc(S(=O)(=O)N2CCC(N(C)C(C)C)CC2)cc1	102	101	0	6
CC(C)NC(=O)C1CCN(S(C)(=O)=O)CC1	104	102	-13	-5
O=C(NCc1cccs1)c1cc2c(s1)CCCC2	105	103	-6	-5
CC(=O)Nc1cccc(-n2nnc(SCC(=O)c3ccccc3)n2)c1	103	107	-11	0
COc1ccc(NC(=O)c2sc(SC)nc2N)cc1	103	99	-10	.
O=C(COC(=O)C1CC2C=CC1C2)NCc1ccc(F)cc1 (stereo unspecified)	101	102	.	-2
O=C(COc1ccccc1)Nc1ccccc1Cl	102	104	-7	-3
CCc1[nH]nc2c1C1(C(=O)N(CC)c3ccccc31)C(C#N)=C(N)O2 (stereo unspecified)	105	101	-37	-8
CCc1ccc(-n2c(SCC(=O)NCc3ccco3)nc3n[nH]c(C)c3c2=N)cc1	101	100	-37	97
Cc1ccc(CCCN)c(C)c1	104	111	-12	-13
COc1cc(C(F)(F)F)nc2ccc(C#CCOC(=O)Nc3ccccc3)cc12	105	107	-3	-6
c1ccc(CC2CCN(Cc3ccncc3)CC2)cc1	98	104	-52	-6
CCc1ccc(C2N3CC4(CC)CN2CC(CC)(C3)C4=O)cc1 (stereo unspecified)	101	103	10	-4
CC1CCCCC1Nc1ncnc2onc(-c3ccc(F)cc3)c12 (stereo unspecified)	100	103	5	-16
N#Cc1c(C(F)(F)F)cc(C23CC4CC(CC(C4)C2)C3)nc1SCCC(=O)O	104	108	-15	3
CC1CCN(S(=O)(=O)c2ccc(C(=O)NC34CC5CC(CC(C5)C3)C4)cc2)CC1	105	106	-4	.

# Following part
SMILES	PV pol inh	PV pol inh intensity	MenB inh	MbtI inh
COC(=O)c1cccc(NC(=O)Nc2ccccc2)c1	108	106	-5	-6
CNCc1c(C)nn(-c2ccccc2)c1C	100	104	-5	2
CC(C)CCN(C)C1CCN(C(=O)Nc2ccccc2)CC1	101	100	-27	14
CCOC(=O)C1C(=O)C=C(c2ccc3ccccc3c2)CC1c1ccc(C(F)(F)F)cc1 (stereo unspecified)	105	109	-17	-9
CCOC(=O)c1ccc2c(c1)nc(C)n2CC	100	105	15	11
CC(O)(C(=O)Nc1ccccc1)C(F)(F)F (stereo unspecified) (tested in a mixture with another compound)	103	102	5	.
Cc1ccccc1CN(C)CC(=O)NC(=O)NC1CCCCC1	106	109	-26	-7
CCNC(=O)CC1C(=O)N(c2ccccc2)C(=O)N1Cc1ccc(OC)cc1 (stereo unspecified)	105	109	-15	3
CCN1CCN(Cc2ccc3c(c2)Cc2ccccc2-3)CC1	100	101	-6	-4
CCC(NC(=O)c1ccccc1NC(=O)c1ccccc1)C(=O)N1CCCC1 (stereo unspecified)	100	104	.	-5
Cc1ccccc1Nc1nc(N)nc(COC(=O)Cc2ccc(Cl)cc2)n1	109	114	2	-20
C(=N\N1CCN(Cc2cccc3ccccc23)CC1)/c1ccncc1	106	105	-11	.
c1ccc(-n2nc(SCC3COc4ccccc4O3)nc2C2CC2)cc1 (stereo unspecified)	108	110	-8	-10
COc1cc2c(cc1OC)C(c1ccccc1)N(C(=O)CSc1nnc(-c3c[nH]c4ccccc34)o1)CC2 (stereo unspecified)	91	84	-19	-8
NC(N)=Nc1nc2ccccc2o1	107	104	-20	.
NS(=O)(=O)c1ccc(NNC(=O)c2c(F)cccc2Cl)cc1	99	101	-1	5
Cc1cc(C(=O)CSc2nc(-c3ccccc3)cn2N)c(C)n1Cc1ccc2c(c1)OCO2	102	110	-20	-1

# Three entries from above, as labelled records.
SMILES: COC(=O)c1cccc(NC(=O)Nc2ccccc2)c1
  PV pol inh: 108
  PV pol inh intensity: 106
  MenB inh: -5
  MbtI inh: -6
SMILES: CNCc1c(C)nn(-c2ccccc2)c1C
  PV pol inh: 100
  PV pol inh intensity: 104
  MenB inh: -5
  MbtI inh: 2
SMILES: CC(C)CCN(C)C1CCN(C(=O)Nc2ccccc2)CC1
  PV pol inh: 101
  PV pol inh intensity: 100
  MenB inh: -27
  MbtI inh: 14
